Screens: PubChem BioAssay, National Center for Advancing Translational Sciences (NCATS)
Rango dissoc inh – qHTS Assay for Inhibitors of RanGTP induced Rango (Ran-regulated importin-beta cargo) - Importin beta complex dissociation; Biochemical FRET Rango-importin beta, RanGTP-induced dissociation; Snurportin-1 (Homo sapiens) + GTP-binding nuclear protein Ran (Homo sapiens) + Importin …; 0.071% of 340,000 active; Potency, µM (titrated, usually from 46.1 µM), without a hit: at the highest dose activity change, negative = inhibition; active means falling FRET ratio curve, often poorly fitted, with flat reads before Ran was added; inconclusive means other falling curves, or compound fluorescence or quenching; inactive means flat or rising ratio curve;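 note: potency is the fitted concentration of half-maximal effect; % of control where 0% means no effect; nearly all actives have a fitted effect of over 45% in size; -100% = wells without RanGTP and RCC1; the record marks most hits as doubtful in a second field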
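FRET read at 45 min, room temperature: inhibitors block the CFP/YFP signal rise when RanGTP (0.6 uM Ran, 2 mM GTP, 0.2 uM RCC1) frees Rango (0.1 uM) from importin beta (0.25 uM). Pre-read after 5 min compound exposure flags interference.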
miR-21 FLuc – qHTS Assay for Modulators of miRNAs and/orActivators of miR-21; 340,000 tested, under 10 active; Potency, µM (top dose mostly 38.3 µM), without a hit: at the top dose reporter change, positive = more light; HeLa miR-21 FLuc reporter, luciferase, 48 h; active = well fitted rising curve with a large enough effect; inconclusive = small, poorly fitted or top-dose-only effect; inactive = no such curve, though single readings can be large or run the other way;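 note: % of control where 0% means no effect; miR-21 action dims this reporter so a rising signal means less miR-21 action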
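HeLa cells endogenously expressing miR-21, stably carrying CMV-driven firefly luciferase with a downstream miR-21 binding site, 2000 cells/well. Titrations up to approximately 40 uM, 48 hours; luciferase luminescence read.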
GLA inh pH 4.5 – qHTS Assay for Inhibitors of Human alpha-Galactosidase at pH 4.5; Alpha-galactosidase A (Homo sapiens), P06280; purified enzyme, 4-MU-alpha-Gal fluorescence, pH 4.5; activity change, negative = inhibition, % at 105 µM; 230,000 tested, under 10 active; inconclusive = small, poorly fitted or top-dose-only inhibition, or a rising curve; inactive = flat fitted curve, though single readings scatter; no compound was filed as active;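 note: 0% = full activity with enzyme and -100% = basal without enzyme; dose as in the result columns while the protocol names 77 µM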
Rango complex inh – qHTS Assay for Inhibitors of Rango (Ran-regulated importin-beta cargo) - Importin beta complex formation; Rango CFP/YFP FRET sensor + importin beta, 45 min; Importin subunit beta-1 (Homo sapiens), Q14974; AID 540263, 2011; Potency, µM (doses to about 92.2 µM), without a hit: at the highest dose inhibition of complex formation; 0.031% of 340,000 active; active = rising FRET ratio curve, often small or poorly fitted; inconclusive = mostly compound fluorescence or quenching in the first reads; inactive = flat curves in all reads;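 note: potency is the fitted concentration of half-maximal effect; 0% = DMSO wells and 100% = buffer wells lacking importin beta; nearly all actives have a fitted effect of over 15% in size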
Target sequence (Q14974 whole entry, looked up): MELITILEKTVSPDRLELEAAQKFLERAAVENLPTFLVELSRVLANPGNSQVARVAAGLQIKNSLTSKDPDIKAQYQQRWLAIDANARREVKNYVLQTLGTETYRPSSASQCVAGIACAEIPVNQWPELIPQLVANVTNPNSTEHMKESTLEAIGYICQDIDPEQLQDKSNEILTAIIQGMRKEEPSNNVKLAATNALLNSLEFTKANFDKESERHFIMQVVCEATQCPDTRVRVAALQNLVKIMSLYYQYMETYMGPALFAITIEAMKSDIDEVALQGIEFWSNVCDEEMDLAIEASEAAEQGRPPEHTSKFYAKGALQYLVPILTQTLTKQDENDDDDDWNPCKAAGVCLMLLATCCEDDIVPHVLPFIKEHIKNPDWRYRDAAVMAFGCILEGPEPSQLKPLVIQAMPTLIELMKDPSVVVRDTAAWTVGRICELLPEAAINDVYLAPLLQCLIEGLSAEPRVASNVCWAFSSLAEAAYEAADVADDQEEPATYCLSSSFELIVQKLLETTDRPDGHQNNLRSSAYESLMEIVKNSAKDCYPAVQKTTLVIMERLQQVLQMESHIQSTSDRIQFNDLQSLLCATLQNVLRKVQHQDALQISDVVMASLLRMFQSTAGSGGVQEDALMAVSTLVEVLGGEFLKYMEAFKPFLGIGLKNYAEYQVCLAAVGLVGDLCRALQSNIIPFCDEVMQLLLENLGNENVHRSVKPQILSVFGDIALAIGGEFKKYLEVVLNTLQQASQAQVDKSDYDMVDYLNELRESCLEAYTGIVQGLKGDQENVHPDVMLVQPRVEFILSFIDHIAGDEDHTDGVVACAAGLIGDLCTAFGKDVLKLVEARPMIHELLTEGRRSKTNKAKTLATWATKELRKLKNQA
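Inhibition scored from the CFP 486 nm/YFP 530 nm FRET ratio 45 min after adding 0.125 microM importin beta to 50 nM Rango biosensor preincubated 5 min with compound (room temperature, PBS with DTT, Tween-20, BSA). No-importin wells as positive control.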
* marks the source's active call; other numbers are inactive results; ? = inconclusive; nt = no result given.

SMILES	Rango dissoc inh	miR-21 FLuc	GLA inh pH 4.5	Rango complex inh
O=C(CCNS(=O)(=O)c1cccs1)N1CCN(c2cccc(C(F)(F)F)c2)CC1	36%	nt	nt	-0.8%
CC1CCCCN1C(=O)COc1ccc2ccc(=O)oc2c1 (stereo not given)	-10%	-20%	3	1.1%
COCCNC(=O)CN(C(=O)Cn1nnc2ccccc21)c1ccc(F)c(Cl)c1	5%	0%	4	0.0%
COc1ccccc1N(CN1C(=O)c2ccccc2C1=O)C(=O)c1cccnc1	4%	2%	10	?
O=C(COc1ccc(Cl)cc1[N+](=O)[O-])N1CCCCCC1	-6%	-16%	-4	-0.5%
CCCCCCSc1cccc(-c2nc3ccc(C)cn3c2NCc2ccccc2)c1	-13%	nt	nt	?
COC(=O)CN1C(c2ccc(OC)cc2)=Nc2ccc(Cl)cc2C1c1ccccc1 (stereo not given)	27%	-12%	-10	0.5%
COCCN1C(=O)C(=O)/C(=C(/O)c2ccc(S(=O)(=O)N3CCOCC3)cc2)C1c1ccc(O)cc1 (stereo not given)	1%	-3%	-4	-1.4%
Cc1c(O)ccc2c(CN3CCN(CCO)CC3)cc(=O)oc12	?	-11%	?	?
Cc1cccc(NC(=O)CSc2nc(=O)n(CCN3CCOCC3)c3c2CCCC3)c1C	-17%	nt	nt	-1.1%
COC(C(=O)Nc1ccc(NC(=O)C(OC)c2ccccc2)cc1)c1ccccc1 (stereo not given)	-3%	-5%	nt	-0.8%
CCOc1cccc(C(=O)Nc2ccc3oc(Cc4ccc(Cl)cc4)nc3c2)c1	0%	30%	0	-3.5%
CCOc1ccc(S(=O)(=O)N2CCC(C(=O)N3CCc4ccccc4C3)CC2)cc1	1%	4%	nt	-1.6%
O=C(NCCCn1ccnc1)C(=O)NCC(c1ccco1)N1CCN(c2ccc(F)cc2)CC1 (stereo not given)	16%	10%	-1	-2.8%
COc1ccc(OCCSc2ncn[nH]2)cc1	-2%	-7%	10	4.0%
Fc1ccccc1COc1ccccc1CNCc1ccncc1	-2%	23%	-1	5.1%
CC(C)Cc1nc(SCC(=O)N2CC(C)OC(C)C2)c2c(=O)n(C)c(=O)n(C)c2n1 (stereo not given)	1%	3%	nt	0.0%
O=C(COC(=O)/C=C/c1ccccc1)NCC1CCCO1 (stereo not given)	-14%	-2%	1	-8.6%
O=C(Nc1ccccc1N1CCOCC1)c1ccc(Cl)nc1	5%	0%	-17	1.2%
Cc1c(C(=O)N2CCN(c3ccccc3)CC2)sc2ncnc(N3CCC(C)CC3)c12	nt	-3%	1	nt
CC(C)N(CCNC(=O)C1CCN(S(=O)(=O)N2CCOCC2)CC1)Cc1ccccc1	5%	1%	6	-1.8%
c1ccc2sc(N3CN(CCN4CCOCC4)CN(c4nc5ccccc5s4)C3)nc2c1	4%	-11%	-6	-2.8%
CCOC(=O)C(C)(C)N(Cc1ccc(Cl)cc1)S(=O)(=O)c1ccc(Cl)c([N+](=O)[O-])c1	nt	18%	-21	nt
Cc1ccc(C(=O)NCCc2cc3ccc(C)c(C)c3[nH]c2=O)cc1[N+](=O)[O-]	-1%	-4%	-10	0.8%
Cc1ccc(S(=O)(=O)N2CCCC2CNC(=O)C(=O)Nc2ccc(F)cc2)cc1 (stereo not given)	17%	nt	nt	?
Nc1nc(N2CCOCC2)cc(=O)[nH]1	-24%	-3%	11	-8.6%
COc1cc2oc3ccc(C#Cc4ccc(N)cc4)cc3c(=O)c2cc1OC	-14%	nt	nt	-1.1%
Cc1ccc(-n2[nH]c(C)c(/C=C3/C=Nc4ccccc43)c2=O)cc1C	42%	-7%	3	-4.3%
CN(CC(=O)Nc1cc(S(=O)(=O)N2CCCCCC2)ccc1Cl)Cc1ccc2c(c1)OCO2	-10%	nt	nt	1.1%
COc1ccc(NC(=O)c2ccc(COc3ccccc3)o2)cc1	4%	-25%	-8	0.3%
CC(=O)c1ccc(NC(=O)COc2ccccc2C(=O)Nc2ccccc2)cc1	6%	9%	nt	-0.1%
CCCC(C)NC1=NCCCCC1 (stereo not given)	1%	0%	10	0.6%
COc1ccc(C(=O)N/C(=C\c2ccco2)C(=O)NC2CCS(=O)(=O)C2)cc1 (stereo not given)	1%	-1%	-2	-0.7%
Cc1cc(NC(=O)C(C)SCC(=O)N(C)CC(=O)Nc2ccc(Br)cc2C)no1 (stereo not given)	3%	3%	nt	1.5%
Cc1cccc(NC(=S)NNC(=O)c2nn(C)cc2Cl)c1	13%	-39%	1	1.9%
O=S(=O)(NCc1ccco1)c1ccc2ccccc2c1	28%	-12%	nt	-3.7%
COc1ccc(CNC(=O)CCCCCn2c(SCC#N)nc3cc4c(cc3c2=O)OCO4)cc1	-8%	-2%	1	1.9%
O=C(c1ccccc1[N+](=O)[O-])N1CCC(Cc2ccccc2)CC1	7%	0%	7	0.6%
CS(=O)(=O)Nc1ccc(-c2n[nH]c(=S)n2-c2ccccc2)cc1	-5%	-1%	-2	-2.0%
CCC1CN(C(=O)N2CCC(C(=O)NCCc3ccccc3)CC2)c2ccccc2O1 (stereo not given)	7%	-1%	nt	-5.0%
CCOC(=O)C(C)Sc1nc2c(c(=O)[nH]c(=O)n2C)n1CCc1ccccc1 (stereo not given)	-3%	-3%	6	0.4%
CCOC(=O)CSc1nnc(CNc2cccc(Cl)c2)n1-c1ccccc1	-10%	-2%	-3	3.7%
Cc1ccc(NC(=O)Cn2nnc(C(=O)Nc3ccc(C)c(C)c3)c2N)cc1	2%	-9%	-2	0.0%
CC12CCC(=O)N1C(C(=O)OCC(=O)Nc1cc(S(=O)(=O)N3CCCCC3)ccc1Cl)CS2 (stereo not given)	10%	-1%	-10	-3.4%
Cc1ccc(S(=O)(=O)NC(C)C(=O)Nc2ccc(C(N)=O)cc2)cc1 (stereo not given)	10%	-3%	-15	-0.1%
CCCCN(C(=O)CC1CCCCC1)c1c(N)n(CC(C)C)c(=O)[nH]c1=O	-2%	nt	nt	-1.3%
CC(=O)/C=C\c1ccc(OC(=O)c2cccnc2)cc1	-24%	1%	nt	-2.5%
COc1ccc(NC(=O)CN(c2ccccc2)S(=O)(=O)N(C)C)cc1Cl	-5%	-3%	-2	0.3%
CCOC(=O)Cc1cc(=O)n2[nH]c(C)c(-c3ccc(OC)cc3)c2n1	1%	-4%	-2	-4.4%
O=c1oc2ccccc2c2c1ncn2-c1ccccc1	1%	-18%	2	1.9%
CC(OC(=O)CCN=C1NS(=O)(=O)c2ccccc21)C(=O)Nc1ccc(F)cc1Cl (stereo not given)	19%	nt	nt	0.5%
COc1ccccc1OCCOc1ccc(C(=O)c2ccccc2)cc1	2%	-1%	-2	4.6%
O=C(Nc1sc2c(c1C(=O)O)CCC2)c1cccs1	11%	11%	2	?
CCOc1ccc(CCNC(=O)Cn2ccc3cc(S(=O)(=O)N4CCCC4)ccc32)cc1	16%	10%	nt	0.0%
CS(=O)(=O)Nc1cccc(C2=NN(S(C)(=O)=O)C(c3ccccc3)C2)c1 (stereo not given)	6%	-13%	-12	-4.0%
CC(C)C1Nc2ccc(C(=O)O)cc2C2C=CCC21 (stereo not given)	?	0%	-8	?
COC(=O)[C@]1(Cc2ccccc2)N[C@H](CN(C)C(=O)Nc2ccc(F)cc2)[C@@H]2C(=O)N(Cc3ccccc3)C(=O)[C@@H]21	2%	nt	nt	3.5%
CCc1cc2c(=O)n(CC(=O)NC3CCCCC3)cnc2s1	-11%	3%	nt	-2.6%
CCOCCCNC(=O)C1CCN(S(=O)(=O)c2ccc3nc4c(c(C(=O)O)c3c2)CCCCC4)CC1	21%	-1%	nt	-0.3%
COCCNC(=O)/C(C#N)=C/c1ccc(-c2ccc(OC)cc2[N+](=O)[O-])o1	5%	-8%	-2	1.1%

New compounds follow
SMILES	Rango dissoc inh	miR-21 FLuc	GLA inh pH 4.5	Rango complex inh
CC(=O)Nc1nc2ccc(NC(=O)c3ccco3)cc2s1	22%	-63%	6	1.6%
Oc1c(C(c2ccccc2)N2CCCCC2)sc2ncnn12 (stereo not given)	-10%	3%	-3	3.9%
Cc1ccccc1-n1c(C)cc(/C=C2/C(=N)N3C(c4ccccc4)=CSC3=NC2=O)c1C	?	0%	-18	?
COc1cc2c(cc1NC(=O)COC(=O)[C@@H](NS(=O)(=O)c1cccc(Cl)c1)C(C)C)oc1ccccc12	1%	1%	-5	-1.3%
COC(=O)c1ccccc1NC(=O)COC(=O)CO/N=C(\C)c1ccc2c(c1)OCO2	-11%	1%	nt	-1.8%
COc1ccc(C(=O)NC2CCN(C(=O)Nc3ccc(F)cc3)CC2)cc1	-2%	-1%	nt	2.3%
O=C(/C=C/c1ccccc1Cl)NCc1ccccc1	-11%	-38%	8	1.0%
COc1ccc(C2=NS(=O)(=O)N(C)C(C(=O)N3CCCCC3C)=C2)cc1 (stereo not given)	26%	5%	nt	2.9%
COc1ccc(NC(=O)c2ccccc2NC(=O)c2cccs2)cc1	15%	-16%	nt	-1.3%
Cn1cnnc1SCc1ccccc1	4%	0%	-1	0.3%
CCCC(=O)C1=C(O)C(c2cccc(Oc3ccccc3)c2)CCC1=O (stereo not given)	6%	20%	9	0.4%
Cc1nc(NC(=O)CSc2nnc(-c3ccncc3)n2C)sc1C	5%	-1%	nt	-2.5%

Reformatted with two lines to a compound: part of the list above.
Order of results – Rango dissoc inh, miR-21 FLuc, GLA inh pH 4.5, Rango complex inh
- CCOCCCNC(=O)C1CCN(S(=O)(=O)c2ccc3nc4c(c(C(=O)O)c3c2)CCCCC4)CC1
  21%, -1%, nt, -0.3%
- COCCNC(=O)/C(C#N)=C/c1ccc(-c2ccc(OC)cc2[N+](=O)[O-])o1
  5%, -8%, -2, 1.1%
- CC(=O)Nc1nc2ccc(NC(=O)c3ccco3)cc2s1
  22%, -63%, 6, 1.6%
- Oc1c(C(c2ccccc2)N2CCCCC2)sc2ncnn12 (stereo not given)
  -10%, 3%, -3, 3.9%
- Cc1ccccc1-n1c(C)cc(/C=C2/C(=N)N3C(c4ccccc4)=CSC3=NC2=O)c1C
  ?, 0%, -18, ?
- COc1cc2c(cc1NC(=O)COC(=O)[C@@H](NS(=O)(=O)c1cccc(Cl)c1)C(C)C)oc1ccccc12
  1%, 1%, -5, -1.3%
- COC(=O)c1ccccc1NC(=O)COC(=O)CO/N=C(\C)c1ccc2c(c1)OCO2
  -11%, 1%, nt, -1.8%
- COc1ccc(C(=O)NC2CCN(C(=O)Nc3ccc(F)cc3)CC2)cc1
  -2%, -1%, nt, 2.3%
- O=C(/C=C/c1ccccc1Cl)NCc1ccccc1
  -11%, -38%, 8, 1.0%
- COc1ccc(C2=NS(=O)(=O)N(C)C(C(=O)N3CCCCC3C)=C2)cc1 (stereo not given)
  26%, 5%, nt, 2.9%
- COc1ccc(NC(=O)c2ccccc2NC(=O)c2cccs2)cc1
  15%, -16%, nt, -1.3%
- Cn1cnnc1SCc1ccccc1
  4%, 0%, -1, 0.3%
- CCCC(=O)C1=C(O)C(c2cccc(Oc3ccccc3)c2)CCC1=O (stereo not given)
  6%, 20%, 9, 0.4%
- Cc1nc(NC(=O)CSc2nnc(-c3ccncc3)n2C)sc1C
  5%, -1%, nt, -2.5%

(more compounds)
SMILES	Rango dissoc inh	miR-21 FLuc	GLA inh pH 4.5	Rango complex inh
COc1ccccc1CCNC(=O)c1ccc(NC(=O)CC2SC(N3CCCCC3)=NC2=O)cc1 (stereo not given)	22%	nt	nt	0.4%
Cc1c2n(c3ccccc13)CCN(C)C2	-17%	nt	nt	?
CCOC(=O)c1c(NC(=O)c2cc(C)oc2C)sc(C(=O)Nc2ccc(Cl)cc2)c1C	-9%	-36%	3	0.8%
CCCCNC(=O)c1ccc2c(c1)C(=O)N(Cc1ccncc1)C2=O	-2%	0%	nt	4.7%
COc1cccc(/C=N/N2C(=O)CSC2=S)c1O	?	-45%	8	-2.5%
COc1ccccc1-c1nnc(Sc2nc([N+](=O)[O-])nn2C)o1	-3%	?	2	-0.2%

A portion of the library, so the mix of outcomes need not match the whole.
